RN4220 kill: kills Staphylococcus aureus RN4220; S. aureus RN4220 growth, OD600, 16 h; inhibition, % (test concentration not listed); 330,000 tested, 0.33% active; AID 1259311;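 active means z-score of -3 or lower and OD600 up to 0.18 on both plates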;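 further: plate controls were untreated cells for no effect and reference antibiotic for full effect; stock transfer was 100 nL into about 80 µL; one replicate is shown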
Mtb hypoxia inh: inhibitors of hypoxia-regulated fluorescent reporter in Mycobacterium tuberculosis; M. tuberculosis hypoxia-regulated fluorescent reporter, fluorescence; fluorescence inhibition, % (test concentration not listed); 300,000 tested, 0.1% active; AID 1159583;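 active means 35 to 45% if threefold the growth effect, above 45% if 1.5-fold the growth effect; inactive means the rest, general growth blockers included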;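 further: wells of about 50 µL received 100 nL stock; 0% = vehicle wells and 100% = reference inhibitor wells; whole bacteria with a GFP reporter of the hypoxia response; strong numbers were not always called active; many hits fall short of the cut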
BJeLR viability: BJeLR cell viability loss; BJeLR (HRASV12) viability, CellTiter-Glo ATP luminescence, 48 h; reference of the scale not given here; inhibition, % (no concentration beside the values); 300,000 tested, 0.17% active; AID 1554;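 active means replicate mean above 50%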;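 further: 50 nL library stock added to about 25 µL; numbers are from one replicate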
ugtP null kill: growth inhibition of S. aureus ugtP deletion strain; 330,000 tested, 0.54% active; growth inhibition, % (concentration not given with the values); AID 1259309; S. aureus RN4220 ugtP deletion, OD600 growth, 16 h; some inactives read as strong as hits;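 active means z-score under -3 and OD600 up to 0.15 on both plates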;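 further: plate controls were untreated wells for no effect and antibiotic for full effect; wells of about 80 µL received 100 nL stock; the first replicate is given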
PrP 5UTR inh: suppresses PrP 5' UTR mRNA reporter expression. cell-based PrP 5' UTR mRNA reporter, plate reader. inhibition, % (no concentration beside the values). 340,000 tested, 0.35% active;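 active means every replicate at 50% or more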;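 further: 0 = median of the neutral control wells; tested in H4 reporter cells; numbers are from one replicate; inactives centre near -14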
Autofluor counter: compound fluorescence in toxin protease inhibitor counterscreen; AID 624483; 360,000 tested, 3.1% active; fluorescence intensity (test concentration not listed); compound autofluorescence counterscreen, microsphere flow cytometry; hits give high values;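 active means at least 3 SD above the mean of all compounds, about 16000 in these data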;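 further: 100 nL of 1 mM stock went into each well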
Mtb hypoxia inh growth: second read-out of Mtb hypoxia inh, no call of its own (marks repeat the call); growth inhibition, %; measured here: M. tuberculosis growth (absorbance);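 0% = vehicle and 100% = reference antibiotic; read after six days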
An asterisk follows results filed as active; · = not tested or not shown; & = joins results of further samples. Hits appear at their usual frequency; any-hit rate near 4%.

item | SMILES | RN4220 kill | Mtb hypoxia inh | Mtb hypoxia inh growth | BJeLR viability
1 | COc1ccc(S(=O)(=O)N2CCC(C(=O)NCCC3=CCCCC3)CC2)cc1C | 1.0 | 3 | 14 | -8
2 | OC(CNCC#Cc1ccccc1)c1ccccc1 (configuration not stated) | 4.5 | 2 | -3 | 13
3 | COc1ccc(C(=O)NC=C2C(=O)OC(C)(C)OC2=O)cc1 | 6.3 | -4 | -4 | -11
4 | COc1ccc(NS(=O)(=O)c2c(C)n(C)c(=O)n(C)c2=O)cc1 | -12 | 14 | 8 | -5
5 | COc1cc2nc(CC(C)C)n(NC(=O)c3ccccc3Br)c(=O)c2cc1OC | 5.9 | 18 | 6 | -1
6 | O=C(c1ccc(F)cc1)N(C(=O)c1ccc(F)cc1)c1ncccn1 | 11 | 11 | 2 | 1
7 | COc1cc(C(=O)N2CCN(C3CCCCC3)CC2)cc(OC)c1OC | 3.8 | 9 | -2 | 1
8 | O=C(Nc1ccc(Cl)cc1)Nc1nnc(CSc2ccc(Cl)cc2)s1 | · | · | · | 4
9 | Cc1onc(-c2ccccc2Cl)c1C(=O)N1C=CC(C(F)(F)Cl)=NCC1 | 4.0 | 3 | 0 | -14
10 | Cc1ccccc1CSc1nc(-c2ccccc2)cc(=O)[nH]1 | 1.7 | 16 | 9 | 6
11 | O=S(=O)(Nc1nc2ccccc2nc1Cl)c1ccccc1 | 8.4 | 2 | 8 | -2
12 | COc1ccc2c(c1)c1ncn(Cc3ccco3)c(=O)c1n2C | 0.1 | 4 | 3 | -7
13 | Brc1ccc(/C=N/c2nc3ccccc3n2CCN2CCOCC2)cc1 | · | · | · | -1
14 | Cn1c(=O)cc(OCC(=O)NCc2cccs2)c2ccccc21 | 2.1 | -8 | 0 | -11
15 | CCCCn1nnnc1NCc1cc(OC)c(OC)c(OC)c1 | 5.0 | 16 | 0 | 0

item | ugtP null kill | PrP 5UTR inh | Autofluor counter
1 | -9 | -29 | 12679
2 | 12 | -7 | 4882
3 | 11 | -12 | 4405
4 | 2 | -21 | 6613
5 | 9 | -15 | 4133
6 | -1 | -5 | 4190
7 | 2 | -40 | 3638
8 | · | -23 | 2138
9 | -1 | -32 | 22372*
10 | -8 | -88 | 2452
11 | 6 | -12 | 2253
12 | 5 | -11 | 4443
13 | · | -8 | 2658
14 | 4 | -21 | 2122
15 | 9 | · | 7867

Additional compounds:
item | SMILES | RN4220 kill | Mtb hypoxia inh | Mtb hypoxia inh growth | BJeLR viability
16 | N#CCC(=O)NC(=O)NCC1CC1 | 2.4 | 1 | 2 | -11
17 | O=C(/C=C/c1ccco1)OCC1CCCN2CCCCC12 (configuration not stated) | 1.9 | 3 | 6 | -1
18 | COc1ccc(-c2c(-c3cc(OC)cc(OC)c3)n(C)c3ccc(-c4cc(F)cc(OC)c4)cc23)cc1 | 5.6 | 18 | 9 | ·
19 | O=C(COC(=O)/C=C/c1ccc(OC(F)F)cc1)NC(=O)NCc1ccccc1 | 1.6 | 1 | 7 | ·
20 | Cc1cc(C)c(NC(=O)C2CC(=O)N(c3ccc4c(c3)OCCO4)C2)c(C)c1 (configuration not stated) | 4.8 | -5 | -8 | -2
21 | COc1ccc(C)cc1NC(=O)COC(=O)C1CCN(C(=O)c2ccc(Cl)cc2)CC1 | 3.1 | 13 | -2 | 0
22 | O=S(=O)(Nc1nc2ccccc2[nH]1)c1ccc2ccccc2c1 | 5.1 | 10 | 6 | -3
23 | COc1cc(OC)cc(C(=O)NCC(=O)N2CCCCC2)c1 | 0.6 | 8 | 0 | 2
24 | Cc1cc(C(=O)CSCCCn2c(=O)[nH]c3ccccc32)c(C)n1C | 8.8 | 7 | 11 | 11
25 | O=C(Nc1ccc([N+](=O)[O-])cc1)N1CCc2ccccc2C1 | 4.7 | 7 | 4 | -7
26 | CC(O)CNCc1cccc2ccccc12 (configuration not stated) | -2.3 | 8 | -2 | 3
27 | O=C(CCC(=O)N1CCN(c2ccc(C(F)(F)F)cn2)CC1)c1cccs1 | 2.7 | 10 | 9 | ·
28 | COc1cccc(-c2ncc3ccccc3c2COC(=O)c2ccc(C(C)(C)C)cc2)c1 | -7.9 | 12 | 10 | ·
29 | Cc1ccc(CSCC(=O)NN=Cc2cccc(OC3CSC3)c2)cc1 | -4.3 | 9 | 12 | ·
30 | Cc1ncc([N+](=O)[O-])n1CC(=O)Nc1ccccc1F | · | · | · | -3

item | ugtP null kill | PrP 5UTR inh | Autofluor counter
16 | 2 | 2 | 3855
17 | 26 | -10 | 4488
18 | 5 | -7 | 2984
19 | -2 | -28 | 5991
20 | -2 | -16 | 6207
21 | 5 | 28 | 4277
22 | 8 | -19 | 6114
23 | 9 | -34 | 6230
24 | -3 | -5 | 2276
25 | 12 | -34 | 4071
26 | 1 | -8 | 4791
27 | 8 | 7 | 6421
28 | 17 | -12 | 3763
29 | -8 | · | ·
30 | · | -7 | 3954

The list goes on.
item | SMILES | RN4220 kill | Mtb hypoxia inh | Mtb hypoxia inh growth | BJeLR viability
31 | CNC(=O)Oc1ccc2c(c1)[C@]1(C)CCN(C)C1N2C (some centres not stated) | 2.5&6.3&3.9&3.0 | -4&7&3&1 | -2&2&1&-6 | 10
32 | O=C(C1CC1)N1CCc2cc(S(=O)(=O)NC3CCN(Cc4ccccc4)CC3)ccc21 | 5.5 | · | · | 1
33 | Cc1ccc(NC(=O)c2cc3c(s2)CCCC3)cc1S(=O)(=O)Nc1ccccc1Cl | -9.0 | -7 | 1 | 0
34 | CC(=O)Nc1ccc(S(=O)(=O)Nc2nc3n(n2)C(c2ccccc2)CC(=O)N3)cc1 (configuration not stated) | 3.2 | · | · | -4
35 | CCOC1OC(C(=O)N2CCOCC2)=CC(c2ccc(C(F)(F)F)cc2)C1CCCO (configuration not stated) | 9.3 | 12 | 14 | ·
36 | Cc1ccc2oc(C(=O)N(Cc3ccncc3)CC3CCCO3)c(C)c2c1 (configuration not stated) | 0.0 | 4 | 12 | 9
37 | CCOc1ccc(C(=O)Nc2ccc(S(=O)(=O)Nc3nccc(C)n3)cc2)cc1OCC | -0.6 | 15 | 13 | -6
38 | COc1cc(OC)nc(Oc2ccccc2C(=O)Oc2ccc(C)cc2)n1 | 2.3 | 12 | 4 | 4
39 | Cc1c(S(=O)(=O)Nc2ccc3c(c2)OCCO3)c(=O)n(C)c(=O)n1C | -7.0 | 10 | 9 | -5
40 | O=C(CCc1nnc(-c2ccccc2)o1)NCc1cc(F)ccc1F | 4.4 | 7 | 3 | 6
41 | CN(N=Cc1ccc(Br)o1)C1=NS(=O)(=O)c2ccccc21 | 7.0 | 3 | 2 | ·
42 | CC1CC(=O)C(C2c3ccccc3CCN2C(=O)CCl)C(=O)C1 (configuration not stated) | 3.4 | 2 | 6 | -1
43 | Cn1c(N)c(C(=O)COC(=O)c2cccnc2Cl)c(=O)n(C)c1=O | -0.5 | 8 | -3 | 2
44 | COc1ccc2nc(NC(=O)c3cnccn3)sc2c1 | 2.3 | 3 | 3 | 13
45 | COc1ccc(-c2sc3ccc(N4CCOCC4)cc3c2C#Cc2ccsc2)cc1 | 2.2 | 10 | 13 | ·

item | ugtP null kill | PrP 5UTR inh | Autofluor counter
31 | -3&-3&0&-3 | -10 | 4287
32 | 5 | -4 | 3672
33 | -15 | -18 | 2058
34 | 1 | -11 | 5132
35 | 7 | · | ·
36 | -2 | -30 | 5535
37 | 6 | -35 | 2835
38 | 13 | -21 | 10694
39 | -2 | -30 | 5615
40 | -2 | -32 | 5086
41 | 0 | · | ·
42 | 1 | -13 | 2771
43 | 1 | -41 | 4452
44 | -6 | -45 | 9933
45 | 2 | -7 | 2817

New compounds follow.
item | SMILES | RN4220 kill | Mtb hypoxia inh | Mtb hypoxia inh growth | BJeLR viability
46 | COc1ccc(C=NN2CCN(c3ccc(Cl)cc3)CC2)cc1 | 0.7 | 4 | -10 | ·
47 | O=C(COC(=O)c1ccc2ccccc2n1)Nc1ccccc1F | 1.5 | 7 | -2 | ·
48 | O=C(Cn1nnc(-c2ccc(S(=O)(=O)N3CCCC3)cc2)n1)Nc1ccccc1-n1cccc1 | 2.7 | 9 | 7 | 1
49 | CN1C(=O)N(C)C2(c3ccccc3)NC(=O)NC12c1ccccc1 (configuration not stated) | 5.8 | · | · | -1
50 | Cc1ccc(/C=N/NC(=O)CNC(=O)c2ccc(S(=O)(=O)N(C)C)cc2)cc1 | · | · | · | -5
51 | O=C(Cn1ncc2c([nH]c3ccccc32)c1=O)NCCc1ccc(Cl)cc1 | 5.2 | 0 | 4 | 1
52 | Cc1cc(C)cc(NC(=O)N2CCCC2C(=O)NCc2ccco2)c1 (configuration not stated) | 2.2 | 4 | 15 | -7
53 | CCn1c2ccccc2c2cc(NC(=O)COC(=O)c3cc(OC)c(OC)cc3OC)ccc21 | 11 | 17 | -2 | 3
54 | O=C(C1CCC1)N(CCc1ccccc1)Cc1nc2ccccc2c(=O)[nH]1 | 0.2 | · | · | 3
55 | COc1ccc([C@@H]2CC=C(C(=O)O)[C@H](c3ccc(C)cc3)N2S(=O)(=O)c2ccc(C)cc2)cc1OC | 7.6 | 2 | 0 | ·
56 | COc1cc2c(cc1OC)CN(c1ccc(F)cc1[N+](=O)[O-])CC2 | 4.1 | 15 | 2 | 9
57 | O=S(=O)(c1ccccc1)N(CC1CO1)c1ccccc1 (configuration not stated) | -1.8 | -4 | -10 | 4
58 | O=C(Cn1cnc2c(cnn2-c2ccc(F)cc2)c1=O)OCc1ccccc1 | 2.7 | 7 | 10 | 5
59 | CN1CCCN(S(=O)(=O)c2ccccc2)CC1 | 1.7 | 6 | -3 | 9
60 | Clc1cnc2nc(SC/C=C/c3ccccc3)[nH]c2c1 | 2.7 | -13 | -8 | 6

item | ugtP null kill | PrP 5UTR inh | Autofluor counter
46 | 6 | · | ·
47 | -4 | -20 | 8009
48 | 4 | -15 | 11586
49 | 5 | -16 | 3704
50 | · | 5 | 2540
51 | -1 | -8 | 5288
52 | 5 | -33 | 4310
53 | -8 | -14 | 2778
54 | -1 | -32 | 3972
55 | 1 | -6 | 3943
56 | 10 | -29 | 2921
57 | -4 | -5 | 4242
58 | 3 | -13 | 2891
59 | 3 | -12 | 4159
60 | 7 | · | 5421

Next compounds follow.
item | SMILES | RN4220 kill | Mtb hypoxia inh | Mtb hypoxia inh growth | BJeLR viability
61 | Cc1cc(OCC(=O)NCC2CCC(C(=O)O)CC2)c2c(C)cc(=O)oc2c1 (configuration not stated) | 0.6 | · | · | -2
62 | COc1ccc(N2CCN(c3nc(Nc4ccc(C)c(F)c4)nc(N4CCCC4)n3)CC2)cc1 | -1.1 | -4 | 6 | -1
63 | Cn1cc([N+](=O)[O-])c(C(=O)Nc2nc(-c3ccc(Cl)cc3)cs2)n1 | -13 | · | · | 4
64 | CCCCCCCCNC(=S)NCCN1CCCCC1 | 0.8 | 17 | 19 | 0
65 | O=C(Cc1c(F)cccc1Cl)NCC1CCCO1 (configuration not stated) | 6.4 | 14 | 8 | 0
66 | CC(=O)c1ccc(OCc2cc(C(=O)NC(C)c3cnn(C)c3)no2)cc1 (configuration not stated) | 1.2 | 2 | 5 | 8
67 | COc1ccc(OC)c(C2C3=C(N=c4sc(=Cc5cccc(O)c5)c(=O)n42)c2ccccc2CC3)c1 (configuration not stated) | -3.6 | -1 | -2 | ·
68 | NC1=C(c2ccc([N+](=O)[O-])cc2)C(=O)CO1 | 2.6 | -2 | 6 | -4
69 | CCOCC(=O)NCc1ccc2c(c1)cc(C)n2C | 1.4 | 6 | 7 | 7
70 | CN1CCN(c2ccc(Cl)cc2NC(=O)c2cc(=O)[nH]c3ccccc23)CC1 | 0.5 | 13 | 6 | ·

item | ugtP null kill | PrP 5UTR inh | Autofluor counter
61 | 8 | 2 | 4114
62 | 0 | -8 | 3955
63 | 84 | 8 | 4796
64 | -2 | -7 | 3623
65 | 10 | -29 | 9338
66 | 2 | -29 | 6316
67 | 7 | · | ·
68 | 4 | -15 | 2021
69 | 4 | -17 | 4107
70 | -7 | -23 | ·

Screens: PubChem, several laboratories
